Env fusion inh – HIV envelope-mediated fusion inhibition; HeLa-JRFL Env/CEM21 cell fusion, luciferase; inhibition, % at 12.3 µM; 360,000 compounds, 1.1% hits; AID 651610;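 active = mean replicate inhibition score of at least 50 and every replicate individually at or above 50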;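 also: 0% = plate neutral controls and 100% = maraviroc near 300 nM; one replicate is shown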
Yeast UUG start – alters start codon recognition fidelity in yeast. 350,000 compounds, 0.13% hits. S. cerevisiae UUG-firefly luciferase reporter, luminescence/redox ratio. activity score, % at 18.7 µM;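 active = replicate mean at a twofold rise or more, about +100% in these data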;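 also: firefly luciferase made from a UUG start codon reports start codon fidelity; reporter light over untreated wells divided by growth signal over untreated wells; some hits fall short of that in this replicate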
* = called active by the depositor; [ ] = dose if it differs, or a comment.

Yeast UUG start,Env fusion inh,mol
-4,18[16.7 µM],C[C@@H]1CCCCO[C@@H](CN(C)S(C)(=O)=O)[C@@H](C)CN([C@@H](C)CO)C(=O)c2cc(NC(=O)c3ccccc3)ccc2O1
-4,28[16.7 µM],C[C@@H]1CN([C@@H](C)CO)C(=O)c2cc(C#Cc3ccncc3)cnc2O[C@H]1CN(C)S(=O)(=O)c1ccccc1F
0,-6[16.7 µM],O=C(C[C@@H]1CC[C@@H](NC(=O)c2ccccn2)[C@@H](CO)O1)NCc1cc(F)cc(F)c1
11,-32[16.7 µM],CC(C)C#Cc1cnc2c(c1)C(=O)N([C@@H](C)CO)C[C@H](C)[C@H](CN(C)Cc1cccc(F)c1)O2
3,-2[16.7 µM],COc1ccccc1-c1cnc2c(c1)C(=O)N([C@@H](C)CO)C[C@@H](C)[C@H](CN(C)Cc1ccc(C(=O)O)cc1)O2
-22,27[16.7 µM],C[C@H]1CN([C@@H](C)CO)C(=O)Cc2cc(N(C)C)ccc2O[C@@H]1CN(C)Cc1ccccc1
-2,-7[16.7 µM],C[C@@H]1CN([C@H](C)CO)S(=O)(=O)c2ccc(C#CCN(C)C)cc2O[C@@H]1CN(C)Cc1cccnc1
-19,4[16.7 µM],CCCNC(=O)C[C@@H]1CC[C@@H]2[C@H](COc3ccc(NC(=O)COC)cc3C(=O)N2C)O1
26,-26[16.7 µM],CC(C)C#Cc1cnc2c(c1)C(=O)N([C@@H](C)CO)C[C@H](C)[C@H](CN(C)C(=O)CCN1CCCCC1)O2
15,-5[16.7 µM],C[C@H]1CN([C@@H](C)CO)S(=O)(=O)c2ccc(Br)cc2O[C@@H]1CN(C)Cc1cncnc1

The last five records of the part before are carried over, then new ones follow.
Yeast UUG start,Env fusion inh,mol
-22,27[16.7 µM],C[C@H]1CN([C@@H](C)CO)C(=O)Cc2cc(N(C)C)ccc2O[C@@H]1CN(C)Cc1ccccc1
-2,-7[16.7 µM],C[C@@H]1CN([C@H](C)CO)S(=O)(=O)c2ccc(C#CCN(C)C)cc2O[C@@H]1CN(C)Cc1cccnc1
-19,4[16.7 µM],CCCNC(=O)C[C@@H]1CC[C@@H]2[C@H](COc3ccc(NC(=O)COC)cc3C(=O)N2C)O1
26,-26[16.7 µM],CC(C)C#Cc1cnc2c(c1)C(=O)N([C@@H](C)CO)C[C@H](C)[C@H](CN(C)C(=O)CCN1CCCCC1)O2
15,-5[16.7 µM],C[C@H]1CN([C@@H](C)CO)S(=O)(=O)c2ccc(Br)cc2O[C@@H]1CN(C)Cc1cncnc1
0,-6[16.7 µM],CCC(=O)Nc1ccc2c(c1)C(=O)N(C)[C@H]1CC[C@@H](CC(=O)N3CCCCC3)O[C@H]1CO2
18,5[16.7 µM],COc1ccc(NC(=O)N(C)C[C@H]2Oc3ccc(NC(=O)Nc4ccccc4)cc3CC(=O)N([C@@H](C)CO)C[C@H]2C)cc1
8,15[16.7 µM],C[C@@H]1CCCCO[C@H](CN(C)Cc2ccc(C(F)(F)F)cc2)[C@@H](C)CN([C@@H](C)CO)C(=O)c2cc(NS(=O)(=O)c3cccs3)ccc2O1
7,10[16.7 µM],CN(C)C(=O)C[C@@H]1C[C@@H]2c3cc(NC(=O)C4CCOCC4)ccc3O[C@@H]2[C@@H](CO)O1
1,33[16.7 µM],COc1cccc(-c2ccc3c(c2)O[C@H](CN(C)Cc2ccncc2)[C@@H](C)CN([C@H](C)CO)S3(=O)=O)c1
-6,43[16.7 µM],COc1ccc(S(=O)(=O)N(C)C[C@@H]2Oc3ccc(NC(=O)c4ccncc4)cc3CC(=O)N([C@H](C)CO)C[C@@H]2C)cc1
-4,-26[16.7 µM],C[C@H]1CN([C@@H](C)CO)C(=O)c2cccc(NC(=O)C3CC3)c2O[C@H]1CN(C)Cc1ccc(Oc2ccccc2)cc1
24,5[16.7 µM],C[C@H](CO)N1C[C@H](C)[C@@H](CN(C)C(=O)c2ccccc2)Oc2ncc(C#Cc3ccccc3)cc2C1=O
-14,-21[16.7 µM],Cc1noc(C)c1NC(=O)Nc1ccc2c(c1)C(=O)N([C@H](C)CO)C[C@@H](C)[C@@H](CN(C)Cc1ccc(Cl)c(Cl)c1)O2
6,-1[16.7 µM],CNC(=O)C[C@@H]1CC[C@H]2[C@@H](COc3ccc(NC(=O)C4CCCCC4)cc3C(=O)N2C)O1
25,6[16.7 µM],Cc1ccc(S(=O)(=O)Nc2ccc3c(c2)C(=O)N([C@@H](C)CO)C[C@@H](C)[C@@H](CN(C)S(=O)(=O)c2cn(C)cn2)OCCCC[C@H](C)O3)cc1
-11,-51[16.7 µM],COc1ccc(S(=O)(=O)N(C)C[C@H]2OCCCC[C@H](C)Oc3ccc(NS(=O)(=O)c4cccs4)cc3C(=O)N([C@@H](C)CO)C[C@H]2C)cc1
-8,16[16.7 µM],Cn1cnc(S(=O)(=O)N[C@H]2CC[C@H](CC(=O)Nc3ccc(-c4ccccc4)cc3)O[C@@H]2CO)c1
19,-4[16.7 µM],C[C@@H]1CCCCO[C@H](CN(C)Cc2ccccc2)[C@H](C)CN([C@H](C)CO)C(=O)c2cc(NC(=O)Cc3ccccc3)ccc2O1
10,-10[16.7 µM],Cc1cccc(S(=O)(=O)N[C@@H]2CC[C@H](CCNS(=O)(=O)c3ccccc3F)O[C@H]2CO)c1
-16,16[16.7 µM],COCCOC(=O)N1C(=O)[C@@]2(c3cc(C#CC4=CCCCC4)ccc31)[C@H](c1ccc(O)cc1)N1[C@H](c3ccccc3)[C@H](c3ccccc3)OC(=O)[C@H]1[C@@H]2C(N)=O
0,3[16.7 µM],N#C[C@@H]1[C@@H](c2ccc(-c3ccncc3)cc2)[C@@H](CO)N1C(=O)C1CCCC1
10,16[16.7 µM],COc1ccc(S(=O)(=O)Nc2ccc3c(c2)C(=O)N([C@@H](C)CO)C[C@@H](C)[C@H](CN(C)C(=O)CCC(F)(F)F)OCCCC[C@H](C)O3)cc1
-6,33[16.7 µM],C[C@H](CO)N1C[C@H](C)[C@H](CN(C)CC2CCCCC2)Oc2ccc(NC(=O)Cc3ccccc3)cc2C1=O
11,-9[16.7 µM],COc1ccc(NC(=O)Nc2ccc3c(c2)CC(=O)N([C@@H](C)CO)C[C@H](C)[C@@H](CN(C)S(=O)(=O)c2c(C)noc2C)O3)cc1
29,2[16.7 µM],CO[C@H]1CN(C)C(=O)c2ccc(NC(C)=O)cc2OC[C@H](C)N(C(=O)C2CCC2)C[C@H]1C
17,-13[16.7 µM],C[C@@H]1CN([C@@H](C)CO)C(=O)c2cc(/C=C/c3ccccc3)cnc2O[C@@H]1CN(C)C(=O)NC1CCCCC1
-5,4[16.7 µM],O=C(CN1CCOCC1)NCC[C@@H]1CC[C@@H](NC(=O)Nc2ccc(F)cc2)[C@H](CO)O1
4,-8[16.7 µM],C[C@H](CO)N1C[C@H](C)[C@H](CN(C)C(=O)CC2CC2)Oc2cc(C#C[C@@H](C)O)ccc2S1(=O)=O
-2,12[16.7 µM],C[C@@H]1CN([C@H](C)CO)S(=O)(=O)c2ccc(C#CC3CC3)cc2O[C@H]1CN(C)Cc1ccncc1
4,-31[16.7 µM],C[C@H]1CN([C@@H](C)CO)C(=O)c2cc(NC(=O)CCCN(C)C)ccc2O[C@H]1CN(C)S(=O)(=O)c1ccccc1
8,14[16.7 µM],C[C@H](CO)N1C[C@H](C)[C@@H](CN(C)S(=O)(=O)c2ccc(Cl)cc2)Oc2ccc(NS(=O)(=O)c3ccc(F)cc3)cc2CC1=O
13,-27[16.7 µM],C/C=C/c1ccc2c(c1)O[C@@H](CN(C)C(=O)NC1CCCC1)[C@@H](C)CN([C@H](C)CO)S2(=O)=O
0,7[16.7 µM],O=C(Cc1ccccn1)NCC[C@H]1CC[C@H](NC(=O)Nc2ccc(F)cc2)[C@H](CO)O1
3,3[16.7 µM],CCC(=O)N1C[C@@H](C)[C@@H](OC)CN(C)C(=O)c2ccc(NS(C)(=O)=O)cc2OC[C@H]1C
12,10[16.7 µM],O=C(Nc1cccc(Cl)c1)N[C@@H]1CC[C@@H](CCNC(=O)C2CC2)O[C@@H]1CO
-4,21[16.7 µM],COCC#Cc1ccc2c(c1)O[C@@H](CN(C)S(=O)(=O)c1cccc(OC)c1)[C@H](C)CN([C@H](C)CO)S2(=O)=O
-1,3[16.7 µM],C[C@H](CO)N1C[C@H](C)[C@H](CN(C)CC2CCCCC2)Oc2ccc(NS(C)(=O)=O)cc2CC1=O
-6,-1[16.7 µM],C[C@H](CO)N1C[C@H](C)[C@H](CN(C)S(C)(=O)=O)OCCCC[C@H](C)Oc2ccc(NC(=O)Nc3ccccc3)cc2C1=O
-1,21[16.7 µM],C[C@H]1CN([C@@H](C)CO)S(=O)(=O)c2ccc(C#CC3CCCC3)cc2O[C@@H]1CN(C)Cc1cccnc1
10,4[16.7 µM],C[C@@H]1CCCCO[C@H](CN(C)C(=O)Nc2ccc3c(c2)OCO3)[C@H](C)CN([C@H](C)CO)C(=O)c2cc(NC(=O)C3CCCCC3)ccc2O1
6,16[16.7 µM],O=C(C[C@@H]1C=C[C@@H](NS(=O)(=O)c2ccc(F)cc2)[C@@H](CO)O1)N1CCC(Cc2ccccc2)CC1
4,-5[16.7 µM],C[C@@H]1CN([C@H](C)CO)C(=O)c2cc(NC(=O)Nc3ccc(F)cc3)ccc2O[C@@H]1CN(C)Cc1ccccc1
-2,5[16.7 µM],C[C@H]1CN([C@@H](C)CO)C(=O)c2cc(NC(=O)C3CC3)ccc2O[C@@H]1CN(C)Cc1ccc(C(F)(F)F)cc1
7,8[16.7 µM],COc1ccc(S(=O)(=O)N(C)C[C@H]2Oc3ccc(NC(=O)CCCCCC(=O)Nc4ccccc4N)cc3CC(=O)N([C@@H](C)CO)C[C@H]2C)cc1

Entries of single compounds, looked up by structure:
C[C@H]1CN([C@@H](C)CO)S(=O)(=O)c2ccc(C#CC3CCCC3)cc2O[C@@H]1CN(C)Cc1cccnc1 is listed with Yeast UUG start = -1; Env fusion inh = 21[16.7 µM]
C[C@@H]1CCCCO[C@H](CN(C)C(=O)Nc2ccc3c(c2)OCO3)[C@H](C)CN([C@H](C)CO)C(=O)c2cc(NC(=O)C3CCCCC3)ccc2O1 is listed with Yeast UUG start = 10; Env fusion inh = 4[16.7 µM]

The listing continues.
Yeast UUG start,Env fusion inh,mol
3,29[16.7 µM],COc1ccc(NC(=O)Nc2cccc3c2O[C@@H](CN(C)C(=O)NC2CCCCC2)[C@@H](C)CN([C@H](C)CO)C3=O)cc1
-12,57*[16.7 µM],C[C@@H]1CN([C@@H](C)CO)C(=O)Cc2cc(NC(=O)Nc3ccc4c(c3)OCO4)ccc2O[C@H]1CN(C)Cc1ccc(Cl)c(Cl)c1
17,-15[16.7 µM],COc1ccc(S(=O)(=O)N[C@H]2CC[C@@H](CCNC(=O)Cc3ccccn3)O[C@H]2CO)cc1
0,-22[16.7 µM],C[C@H]1CN([C@@H](C)CO)C(=O)c2cc(C#CC(C)(C)O)cnc2O[C@@H]1CN(C)C(=O)CN(C)C
-4,-34[16.7 µM],COc1ccccc1-c1ccc2c(c1)O[C@H](CN(C)C(=O)Nc1cccc(F)c1)[C@H](C)CN([C@H](C)CO)S2(=O)=O
-10,-5[16.7 µM],CN1CCN(C(=O)C[C@H]2C=C[C@@H](NC(=O)Cc3ccccn3)[C@@H](CO)O2)CC1
18,29[16.7 µM],C[C@H](CO)N1C[C@H](C)[C@@H](CN(C)S(=O)(=O)c2ccc(F)cc2)Oc2ncc(-c3cccc(C(=O)N(C)C)c3)cc2C1=O
10,-11[16.7 µM],CCCNC(=O)N(C)C[C@@H]1Oc2cc(-c3ccccc3F)ccc2S(=O)(=O)N([C@H](C)CO)C[C@@H]1C
-7,11[16.7 µM],C[C@H](CO)N1C[C@H](C)[C@@H](CN(C)CC2CC2)Oc2cc(-c3cccnc3)ccc2S1(=O)=O
8,3[16.7 µM],C[C@H](CO)N1C[C@H](C)[C@@H](CN(C)S(=O)(=O)c2cn(C)cn2)Oc2ccc(NS(=O)(=O)c3cn(C)cn3)cc2CC1=O
3,15[16.7 µM],C[C@@H]1CCCCO[C@@H](CN(C)Cc2ccc(C(F)(F)F)cc2)[C@H](C)CN([C@@H](C)CO)C(=O)c2cc(NS(=O)(=O)c3ccccc3)ccc2O1
-5,5[16.7 µM],CN(C)CC(=O)Nc1ccc2c(c1)[C@@H]1C[C@@H](CC(=O)NCc3ccccc3)O[C@@H](CO)[C@@H]1O2
10,8[16.7 µM],C[C@@H]1CN([C@@H](C)CO)C(=O)c2cc(NC(=O)CCCN(C)C)ccc2O[C@@H](C)CCCCO[C@H]1CN(C)C(=O)CCC(F)(F)F
9,11[16.7 µM],COCC#Cc1ccc2c(c1)O[C@H](CN(C)Cc1ccccc1)[C@H](C)CN([C@H](C)CO)S2(=O)=O
-24,0[16.7 µM],C[C@H]1CN([C@@H](C)CO)C(=O)c2cccc(N(C)C)c2O[C@@H]1CN(C)Cc1ccncc1
16,-5[16.7 µM],C[C@@H]1CN([C@H](C)CO)C(=O)c2cc(NS(=O)(=O)c3cccs3)ccc2O[C@@H]1CN(C)S(=O)(=O)c1ccccc1
16,13[16.7 µM],Cc1ccc(S(=O)(=O)N2C[C@@H](O)COC[C@H]3O[C@@H](CC(=O)NCc4ccc5c(c4)OCO5)CC[C@@H]32)cc1
0,23[16.7 µM],C[C@@H]1CN([C@@H](C)CO)C(=O)Cc2cc(NC(=O)Nc3ccccc3)ccc2O[C@H]1CN(C)Cc1ccc(-c2ccccc2)cc1
-7,14[16.7 µM],CN1C(=O)c2cc(NC(=O)c3cscn3)ccc2OC[C@@H]2O[C@H](CC(=O)N3CCOCC3)CC[C@H]21

Assay outcomes: PubChem, Broad Institute

Some of the compounds tested, so the mix of outcomes need not match the whole.
